# Compound activity deposited in PubChem by National Center for Advancing Translational Sciences (NCATS).
# Lassa entry inh: qHTS for Inhibitors of binding or entry into cells for Lassa Virus; Lassa virus pseudotype entry inhibition, cell reporter; control for the full effect not named in the record; Potency, µM (series often up to 37.9 µM), inactives show top-dose activity change, negative = inhibition, actives largely listed as inhibitors; 1.2% of 300,000 active; AID 540256, 2011; active means well fitted inhibition curve with a large enough effect; inconclusive means small, poorly fitted or top-dose-only effect, or effect the other way; inactive means flat fitted curve, though single readings scatter; tested in HEK293 cells; also: % is scaled to controls: 0 for no effect and ±100 for the full control effect; nearly all actives have a fitted effect of over 50% in size; luciferase read-out
# SARS PLpro yeast: qHTS of Yeast-based Assay for SARS-CoV PLP. S. cerevisiae expressing SARS-CoV PLpro, growth rescue; control for the full effect not named in the record. Potency, µM (series often up to 32.9 µM), inactives show at the top dose activity, positive = growth rescue. 0.19% of 330,000 active. AID 485353, 2010; also: 0% is about no effect; nearly all actives have a fitted effect of over 55% in size; growth read by luminescence after 48 h
# RE007 growth inh: qHTS Assay for Inhibitors of the HIV-1 protein Vpr | S. pombe RE007 Vpr strain, BacTiter-Glo ATP luminescence, 24 h; control for the full effect not named in the record | Potency, µM (highest dose often 92.2 µM), for the others: at the highest dose activity change, negative = less growth | 0.21% of 360,000 active; active = well fitted falling curve with a large enough effect; inconclusive = small, poorly fitted or top-dose-only effect; inactive = no such curve, though single readings can be large or run the other way;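 also: % is scaled to controls: 0 for no effect and ±100 for the full control effect; nearly all actives have a fitted effect of over 50% in size; the assay follows cell death caused by Vpr and the record does not say whether a fall means rescue or toxicity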
#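 Fission yeast strain RE007, carrying one chromosomally integrated HIV-1 vpr copy, was seeded at OD 0.01 in PMG+AL medium with 23 nL pinned compound. After 24 h at 30 °C and 99% humidity, viability was read by BacTiter-Glo luminescence.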
# MARV entry inh: qHTS for inhibitors of binding or entry into cells for Marburg Virus; Marburg virus pseudotyped entry inhibition, cell reporter; control for the full effect not named in the record; about a third of the inactives were read at about 46 µM; Potency, µM (highest dose often 37.8 µM), without a hit: top-dose activity change, negative = inhibition, most hits filed as inhibitors; 1.8% of 300,000 active; active = well fitted inhibition curve with a large enough effect; inconclusive = small, poorly fitted or top-dose-only effect, or effect the other way; inactive = flat fitted curve, though single readings scatter; tested in HEK293 cells; about a fifth of its hits are not listed in these tables; also: % is scaled to controls: 0 for no effect and ±100 for the full control effect; luciferase read-out
# Cruzain inh Det: qHTS Assay for Promiscuous and Specific Inhibitors of Cruzain (with detergent) | Cruzipain (Trypanosoma cruzi), P25779 | purified cruzain, Z-FR-AMC fluorescence, 0.01% Triton | Potency, µM, for the others: max response, negative = inhibition, actives largely listed as inhibitors | 0.43% of 200,000 active | AID 1478, 2009; active = well fitted curve in the direction sought with a large enough effect; inconclusive = small, poorly fitted or top-dose-only effect, or another doubt; inactive = no such curve, though single readings can be large; an effect the other way counts as inactive or inconclusive;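 also: plate controls were neutral wells for no effect and buffer without enzyme for full effect; nearly all actives have a fitted effect of over 40% in size; top concentration of the series not given in the record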
# Target sequence (P25779 123-467 limits assumed): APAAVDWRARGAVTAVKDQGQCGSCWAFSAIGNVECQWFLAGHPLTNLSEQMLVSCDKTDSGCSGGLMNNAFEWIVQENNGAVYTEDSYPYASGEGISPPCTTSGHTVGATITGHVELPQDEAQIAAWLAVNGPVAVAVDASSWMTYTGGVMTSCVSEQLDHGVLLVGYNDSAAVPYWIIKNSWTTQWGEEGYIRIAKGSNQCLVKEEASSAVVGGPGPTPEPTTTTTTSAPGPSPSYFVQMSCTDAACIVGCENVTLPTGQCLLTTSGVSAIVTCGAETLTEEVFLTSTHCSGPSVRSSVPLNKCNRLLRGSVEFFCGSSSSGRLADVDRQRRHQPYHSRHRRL
#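 Detergent-containing arm of a paired screen for aggregation-based inhibition: 0.01% Triton X-100 present. Cruzain at 1.5 nM cleaved 2 uM Z-FR-AMC at pH 5.5 with 5 mM DTT; AMC fluorescence gain over 60 s measured activity.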
# StopGo reporter: High Throughput Screening for Foot and Mouth Disease Virus Antivirals. human cells with a luciferase reporter of 2A StopGo recoding; control for the full effect not named in the record. Potency, µM (highest dose often 57.9 µM), inactives show at the highest dose signal change, negative = less light. 1.2% of 410,000 active. AID 1159524, 2015; active = well fitted falling curve with a large enough effect; inconclusive = small, poorly fitted or top-dose-only effect; inactive = no such curve, though single readings can be large or run the other way; tested in HEK293T cells; also: % is scaled to controls: 0 for no effect and ±100 for the full control effect; nearly all actives have a fitted effect of over 45% in size; luciferase light after 4 h
# Cruzain inh noDet: qHTS Assay for Promiscuous and Specific Inhibitors of Cruzain (without detergent); purified cruzain, Z-FR-AMC fluorescence, no detergent; 2.3% of 200,000 active; Potency, µM, inactives show max response, negative = inhibition, hits mostly inhibitors; active = well fitted curve in the direction sought with a large enough effect; inconclusive = small, poorly fitted or top-dose-only effect, or another doubt; inactive = no such curve, though single readings can be large; an effect the other way counts as inactive or inconclusive;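 also: plate controls were enzyme without inhibitor for no effect and buffer without enzyme for full effect; nearly all actives have a fitted effect of over 40% in size; top concentration of the series not given in the record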
#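 Detergent-free condition (0.00005% Triton X-100) in acetate buffer pH 5.5 with DTT. 1.5 nM enzyme and compound were pre-mixed 15 min, then 2 uM Z-FR-AMC substrate added; reaction progress from fluorescence change between first and third reads (60 s).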
# NS1 function inh: qHTS Assay for Inhibitors of Influenza NS1 Protein Function | Potency, µM (highest dose often 46.1 µM), for the others: at the highest dose activity, positive = more growth | AID 2326, 2010 | S. cerevisiae slowed by influenza A NS1, growth recovery by OD600 | 0.4% of 270,000 active; also: actives are rising curves; nearly all actives have a fitted effect of over 50% in size
#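 Growth recovery, yeast-based: influenza A NS1 expressed in S. cerevisiae causes slow growth, and suppressors are detected by OD600. The parent strain without NS1 is used as positive control.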
# The depositor's hits bear a star; ? = inconclusive; nt = not tested or not shown; [ ] = another dose, or the depositor's remark. Unless noted, calls follow the shape of the dose curve; as a rule, active means well fitted rising curve with a large enough effect; inconclusive means small, poorly fitted or top-dose-only effect; inactive means no such curve, though single readings can be large or run the other way. Potency is read from the fitted curve at half-maximal effect.
# Second line of a record: Lassa entry inh | SARS PLpro yeast | RE007 growth inh | MARV entry inh | Cruzain inh Det | StopGo reporter | Cruzain inh noDet | NS1 function inh
- O=C(NCCCn1ccnc1)C1CCN(S(=O)(=O)c2ccc(F)cc2)CC1
 : 19% | 5% | 6% | 3%[46.1 µM] | nt | -20% | nt | 2%
- CCN(CC)C(=O)CSc1nc2nc(C)cc(C)c2c(=O)[nH]1
 : 23% | 0% | -1% | 11% | 2.4% | nt | 6% | 8%
- COc1cccc2c1cc1c(=O)n(CC(=O)N3CCCCC3)nc(C)n12
 : nt | nt | nt | ? | -2.3% | -13% | 1% | nt
- COc1cc(CNCC2CCCO2)ccc1OCC(N)=O (stereo unspecified)
 : nt | -1% | 4% | nt | nt | -8% | nt | -1%
- O=C(NNC(=O)c1cc(Cl)ccc1O)c1ccc(NS(=O)(=O)c2cccs2)cc1
 : 1% | ? | 4% | 0% | nt | -6% | nt | nt
- Cc1ccc2c(CN3CCCCC3)cc(=O)oc2c1
 : -1%[46.1 µM] | 0% | 17% | 15%[46.1 µM] | nt | 21% | nt | 8%
- O=C(/C=C/c1cccc([N+](=O)[O-])c1)NCCc1ccc(F)cc1
 : 23% | -8% | 7% | 6% | -4.4% | -11% | -10% | 4%
- CCOc1ccccc1-n1c(SCC(=O)N(C(C)C)C(C)C)nnc1-c1cccnc1
 : -2% | -2% | 16% | -3% | 4.0% | 17% | 10% | 4%
- CC(=O)Nc1ccc2c(O)cc(S(=O)(=O)O)cc2c1
 : -25%[46.1 µM] | nt | 14% | ? | nt | -15% | nt | nt
- CSc1ccc(CCNC(=O)c2cc3cc4cc(C)ccc4nc3s2)cc1
 : 28%[46.1 µM] | nt | nt | nt | -2.2% | 20% | 7% | nt
- Cc1ccc(-n2nc(C)c3c2NC(=O)CSC3c2ccc(O)cc2)cc1Cl (stereo unspecified)
 : 1%[46.1 µM] | nt | nt | 0%[46.1 µM] | -1.4% | -18% | -1% | nt
- COc1ccccc1C(NC(=O)CC(C)C)c1c(O)ccc2ccccc12 (stereo unspecified)
 : nt | 5% | 2% | nt | nt | -13% | nt | 6%
- CC(=O)Nc1ccc(OC(=O)c2cc3cc(Br)cc(Br)c3oc2=O)cc1
 : -9% | 2% | nt | -19% | -0.9% | nt | 20µM* | -22%
- CCCCc1ccc(Nc2ncnc3nc[nH]c23)cc1
 : nt | -5% | 22% | nt | -13% | 19% | 1% | -63%
- CNC(=O)C1(C(F)(F)F)C/C(=C\CCO)CCCO1 (stereo unspecified)
 : nt | -9% | -5% | nt | nt | -20% | nt | 4%
- COc1ccc(/C=C2\SC(=S)N(CCC(=O)Nc3cccc(O)c3)C2=O)cc1OC
 : 11%[46.1 µM] | 1% | 3% | 18%[46.1 µM] | nt | 6% | nt | 1%
- COc1ccc(C(=O)NCC(=O)OCc2cccc(Br)c2)cc1
 : -14% | 3% | 0% | ? | -7.3% | 18% | -2% | -45%
- Cc1cccc(-c2nnc(-c3ccc(N)cc3)o2)c1
 : ? | -22% | -21% | 1% | -13% | 20% | ? | -13%
- CCOc1ccc(S(=O)(=O)N2CCCC(C(=O)NCc3cccnc3)C2)cc1Cl (stereo unspecified)
 : ? | 0% | -5% | ? | nt | -8% | nt | 9%
- N#Cc1c(/N=C/C=C/c2ccccc2)sc2c1CCCC2
 : 58%[14.3 µM] | 0% | -19% | 1% | -0.2% | 45%[activator] | -22% | -10%
- CCc1nc2ccccc2n1CC(=O)N1CCN(Cc2ccccc2)CC1
 : 1% | -8% | -24% | -11%[46.1 µM] | nt | -25% | nt | 2%
- CC(C)n1c(NCCc2ccccc2)nc2c1c(=O)n(C)c(=O)n2C
 : ? | 1% | 15% | ? | 0.5% | 16µM* | 4% | 0%
- Cc1cc(C(=O)Nc2cc(C)on2)on1
 : nt | 0% | 5% | nt | nt | -24% | nt | -7%
- COC(=O)c1noc(-c2ccc(C)cc2)n1
 : -2% | -9% | 6% | -15% | 4.5% | 3% | 1% | -48%
- CCn1c(CNc2ccc(C)cc2)nnc1SCC(N)=O
 : 13% | 7% | -5% | ? | -0.7% | -19% | -8% | 8%
- CN(C)c1ccc(C(C(=O)NCc2ccccc2)N(Cc2ccco2)C(=O)c2snc(C(N)=O)c2N)cc1 (stereo unspecified)
 : ? | -2% | 1% | ? | nt | -10% | nt | -30%
- Cc1cc(=O)[nH]c(SCC(=O)O)c1C#N
 : 11% | 10% | 20% | 11% | 1.2% | -10% | 3% | 10%
- O=C(COC(=O)CSc1ccc2ccccc2c1)NC1CC1
 : 19% | 6% | -6% | ? | -4.8% | -2% | 1% | -33%
- CC(=O)Nc1ccc(/C=N/NC(=O)c2cccc(S(=O)(=O)N3CCOCC3)c2)cc1
 : -4% | 0% | 19% | ? | -7.1% | -5% | -3% | -5%
- Cc1ccc(NC(=S)NCc2ccccc2)cc1C
 : -20% | nt | 4% | -1% | nt | 2% | nt | nt
- COc1cc(/C=C/C(=O)O)cc(S(=O)(=O)Nc2ccccc2Cl)c1OC
 : 2% | -7% | 9% | -11% | -4.1% | -23% | -15% | 2%
- CC(C)c1cc(NC(=O)c2ccccc2)cc(C(C)C)c1O
 : ? | 6% | -8% | -13% | nt | -17% | nt | nt
- CCN1C[C@]2(CO)CC[C@H](OC)[C@@]34C2[C@H](OC)[C@@](O)(C13)[C@@]1(O)C[C@H](OC)[C@H]2C[C@@H]4[C@@H]1[C@H]2OC
 : nt | 0% | -3% | nt | nt | -1% | nt | -3%
- CCOC(=O)N1CCN(C(=O)C2CCN(S(=O)(=O)c3ccc(C)cc3)CC2)CC1
 : 5% | -2% | 0%[3.69 µM] | -2% | 8.5% | -4% | 15% | -1%
- COc1ccc(CCNC(=O)c2cccs2)cc1OC
 : 24%[46.1 µM] | 12% | -4% | ? | nt | -33% | nt | 1%
- O=C(C1=C[C@H](c2ccccc2)C[C@H](OCc2ccc(CO)cc2)O1)N1CCOCC1
 : nt | 0% | 9% | nt | nt | -4% | nt | -2%
- O=C(COC(=O)c1ccncc1)c1ccccc1
 : 1% | 2% | -14% | 15%[46.1 µM] | nt | 27% | nt | nt
- CC1=C(C(=O)Nc2ccc(C)cc2C)C(CC(C)C)n2nc(SCc3ccccc3C)nc2N1 (stereo unspecified)
 : -5%[46.1 µM] | nt | nt | 29%[46.1 µM] | -0.5% | 11% | -13% | nt
- CCCCC(=O)Nc1ccc2nc(SCC(=O)N3CCCC3)sc2c1
 : 7%[46.1 µM] | nt | nt | ? | -4.3% | 8% | -7% | nt
- COCCn1c(C)cc(C(=O)COc2ncnc3ccc(Br)cc23)c1C
 : 4% | 1% | 5% | -5%[46.1 µM] | nt | 3% | nt | -1%
- COc1ccc(N(CC(=O)Nc2ccccc2OC)S(=O)(=O)c2ccc(NC(C)=O)cc2)cc1
 : 3.2µM* | 2% | 5% | ? | nt | 0% | nt | 10%
- COC(=O)C1CCN(Cc2c(C(=O)N3C[C@@H](C)O[C@@H](C)C3)nc3ccc(Cl)cn23)CC1
 : nt | 1% | 13% | nt | nt | 23% | nt | -4%
- CS(=O)(=O)c1ccc(NC(=O)c2ccc3c(c2)S(=O)(=O)N=C2CCCCCN23)cc1
 : 1% | 6% | 10% | -1% | nt | 10% | nt | nt
- CC(C)CC1Nc2ccc(C(=O)NCCCN3CCCCC3C)cc2NC1=O (stereo unspecified)
 : nt | -4% | 0% | nt | nt | -16% | nt | 9%
- CCCCn1c(N)c(N(CC(C)C)C(=O)c2ccc(OC)c(S(=O)(=O)N3CCOCC3)c2)c(=O)[nH]c1=O
 : 3% | nt | 19% | -11% | nt | -12% | nt | nt
- Cc1ccc(S(=O)(=O)N/N=C/c2ccccc2O)cc1
 : nt | 0% | -4% | nt | nt | 117%[activator] | nt | 0%
- O=C(CN1CCN(C(=O)c2ccco2)CC1)NCc1ccc(Cl)cc1
 : -16% | nt | -3% | 3% | nt | -22% | nt | 5%
- CCOC(=O)C1=C(c2ccccc2)Nc2ncnn2C1c1cccc(O)c1 (stereo unspecified)
 : nt | -1% | 1% | -2% | nt | 0% | nt | -1%
- Cc1ccc(NC(=O)COC(=O)CNC(=O)c2ccc(Br)cc2)c(C)c1
 : 17% | 7% | -2% | 0% | 14µM* | -2% | 16µM* | -6%
- CC(C)c1c(O)nc(SCc2ccc(F)cc2)[nH]c1=O
 : -6% | 1% | 4% | -18% | nt | -23% | nt | 1%
- CC(=O)C1=C(C)NC2(O)c3ccccc3C(=O)C12O (stereo unspecified)
 : -3% | -1% | 3% | 1%[46.1 µM] | nt | 7% | nt | nt
- Cc1ccc(C(=O)NNc2c3ccccc3nc3ccccc23)cc1
 : -13%[46.1 µM] | -5% | -16% | ? | nt | -27% | nt | -2%

# Record cards, from the list above. Order of screens: Lassa entry inh | SARS PLpro yeast | RE007 growth inh | MARV entry inh | Cruzain inh Det | StopGo reporter | Cruzain inh noDet | NS1 function inh
# Cc1ccc(C(=O)NNc2c3ccccc3nc3ccccc23)cc1 is listed with -13%[46.1 µM] | -5% | -16% | ? | nt | -27% | nt | -2%
# COc1ccc(N(CC(=O)Nc2ccccc2OC)S(=O)(=O)c2ccc(NC(C)=O)cc2)cc1 is listed with 3.2µM* | 2% | 5% | ? | nt | 0% | nt | 10%
# CC(C)c1c(O)nc(SCc2ccc(F)cc2)[nH]c1=O is listed with -6% | 1% | 4% | -18% | nt | -23% | nt | 1%
